rRNA inh HTS = inhibits bacterial ribosomal RNA function over humanized ribosomes | E. coli WT GFP vs humanized-ribosome RFP mutants, fluorescence, 24 h; stronger effect = lower value; DMSO median 0, no signal -100 | GFP signal change (wild-type ribosome), % (test concentration not listed) | 1.6% of 350,000 active | AID 720706;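 active means significant combined selectivity score with lowered wild-type GFP, culture density cut under 30%, mutant RFP and density less affected; inactive means any of these conditions unmet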; further: one replicate is shown; some compounds called inactive have numbers as strong as hits
Vif A3G = HIV-1 Vif–A3G interaction blockers – biochemical, TR-FRET, GST-Vif 1-94, biotin-A3G peptide, dose response retest, primary screen (AID 1117319); TR-FRET GST-Vif / biotin-A3G peptide binding; higher % means a stronger effect; test concentration not given here; strong numbers were not always called active; 0.57% of 260,000 active; inhibition, %; hits with a dose series show IC50 in µM;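 active means above the screen mean plus three standard deviations and confirmed in dose response; inconclusive means results disagree or hit not tested in dose response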;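 further: Vif residues 1-94 fused to GST binding biotinylated APOBEC3G peptide 110-148; 0% = full assay without inhibitor and 100% = GST in place of GST-Vif; retest series ran down from 100 µM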
RanGTP-Impb inh = inhibitors of RanGTP-importin-beta interaction, primary screen, biochemical, FRET, CFP-Ran, YFP-importin-beta, homogeneous; cell-free CFP-Ran/YFP-importin-beta FRET ratio; inhibition, % (test concentration not listed); 1.1% of 300,000 active; AID 2216;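 active means most replicates above 15%; inconclusive means exactly half above 15%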;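 further: 0% = DMSO wells and 100% = Ran loaded with GDP instead of GTP; wells of about 40 µL received 100 nL stock; the first replicate is given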
Beta apoptosis = blocks beta cell apoptosis; AID 435005; 0.8% of 300,000 active; INS-1E cytokine-induced death, ATP luminescence, 48 h; percent of positive-control rescue, neutral wells zero; protection from apoptosis, % (test concentration not listed);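 active means all replicates at 75% or more, or half of them and the mean; inconclusive means half reach 75% but not the mean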;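 further: 0% = cytokine-treated negative control wells and 100% = positive control rescue; higher means more ATP so stronger rescue from cytokine killing; wells of about 40 µL received 100 nL stock; the first replicate is given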
A1 inh = inhibitors of the anti-apoptotic protein A1, read as caspase activation. AID 2462. MEF A1-2A-BIM cells, Caspase-Glo 3/7 luminescence, 3 h; percent of clofoctol response, vehicle zero. 0.066% of 330,000 active. caspase activation, % (test concentration not listed);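 active means over half of replicate activation scores above 10%, or exactly half above 10 with the replicate mean above 10; inconclusive means replicate mean below 10 yet half the replicates above 10; inactive means over half of replicates below 10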;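 further: wells of about 30 µL received 50 nL stock; many hits fall short of the cut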
Calb FLC = C. albicans growth modulation with fluconazole; growth inhibition, % (no concentration beside the values); 0.57% of 300,000 active; C. albicans CaCi-2 (fluconazole-resistant clinical isolate) + fluconazole, Alamar Blue growth, 48 h;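 active means most replicates above 75%; inconclusive means exactly half above 75%; inactive means most below 75%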;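 further: all wells also contain fluconazole at 8 µg/ml as a sub-toxic cotreatment; 0% = median of DMSO wells and 100% = median of geldanamycin control wells; wells of about 8 µL received 7.5 nL stock; the first replicate is given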
MLL AF4-AF9 inh = blocks AF4 peptide binding to human AF9; P42568; AlphaScreen, biotin-AF4 peptide binding to FLAG-AF9; inhibition, % at 10 µM; 0.47% of 350,000 active;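 active means every replicate reaching a set inhibition limit, whatever the replicate mean, cut at about 25% in these data; inconclusive means mean inhibition reaches that limit but some replicates miss it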;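 further: 0% = plate neutral control median and 100% = total signal loss; the record names both 10 and 1 µM as test concentration; the first replicate is given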
Target sequence (P42568 whole entry, looked up): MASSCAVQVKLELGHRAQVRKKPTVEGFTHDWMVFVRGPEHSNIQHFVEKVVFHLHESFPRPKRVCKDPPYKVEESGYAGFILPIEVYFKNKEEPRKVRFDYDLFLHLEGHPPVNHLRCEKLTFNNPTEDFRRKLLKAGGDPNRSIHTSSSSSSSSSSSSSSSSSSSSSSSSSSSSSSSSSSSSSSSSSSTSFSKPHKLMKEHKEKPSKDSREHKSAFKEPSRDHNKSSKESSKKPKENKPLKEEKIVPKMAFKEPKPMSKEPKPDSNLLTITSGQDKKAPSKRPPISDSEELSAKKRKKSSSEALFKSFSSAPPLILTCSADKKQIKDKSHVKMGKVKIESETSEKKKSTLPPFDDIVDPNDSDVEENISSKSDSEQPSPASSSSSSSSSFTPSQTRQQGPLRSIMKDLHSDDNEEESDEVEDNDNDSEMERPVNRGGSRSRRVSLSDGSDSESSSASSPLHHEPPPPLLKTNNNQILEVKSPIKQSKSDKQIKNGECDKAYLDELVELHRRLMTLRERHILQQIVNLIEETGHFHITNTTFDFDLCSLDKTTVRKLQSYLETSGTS
T cruzi inh = T. cruzi replication inhibition; T. cruzi beta-gal in NIH3T3, luminescence, 90 h; inhibition, % (concentration not given with the values); 1.4% of 300,000 active; AID 1885;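 active means mean inhibition across valid replicates above about 55%, limit read from the data; inconclusive means mean below that limit but half or more replicates reach it; inactive means mean below it, under half of replicates reach it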;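 further: signal also drops with host cell toxicity which is not excluded here; 0% = plate median of DMSO wells and 100% = zero luminescence signal; higher percent means less beta-gal luminescence so fewer parasites; stock transfer was 50 nL into about 50 µL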
rRNA inh HTS OD600 = second read-out of rRNA inh HTS, no call of its own (marks repeat the call); OD600 change, %; measured here: OD600 growth;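 optical density of the mix in the first replicate; 0 = DMSO median and -100 = no signal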
rRNA inh HTS RFP = further read-out of rRNA inh HTS, marked with its call; RFP signal change, %; measured here: RFP humanized mutant strains;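 first replicate; 0 = DMSO median and -100 = no signal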
The depositor's hits bear a star; ? = inconclusive; · = not tested or not shown.

SMILES	rRNA inh HTS	rRNA inh HTS OD600	rRNA inh HTS RFP	Vif A3G	RanGTP-Impb inh	Beta apoptosis	A1 inh	Calb FLC	MLL AF4-AF9 inh	T cruzi inh
COc1ccc(CN2CCC(=O)N([C@H](CO)Cc3ccccc3)CC2)cc1	4	12	-5.3	·	-1.7	-8	0.2	-5	-3.3	-4
CC(C)CC(=O)c1c[nH]c(C(=O)O)c1	6	13	-8.3	-8%	·	1	1.7	-1	0.3	-4
CCN(c1ccccc1)S(=O)(=O)c1cccc(C(=O)NCc2ccccc2CN2CCOCC2)c1	-35	-56	-2.5	-8%	·	2	0.3	·	3.7	·
CCOC(=O)C(=CNc1ccc(C(F)(F)F)cc1Cl)C(=O)OCC	-4	2	-0.8	-7%	-1.6	·	0.8	-3	-2.8	44
Cn1c(=O)c2c(=O)cc(N)[nH]c2n(C)c1=O	8	5	-6.8	·	-0.6	-4	0.5	9	·	-4
CCSc1cc(N2CCCC2)nc(-c2ccccc2Cl)n1	-10	-10	-13	-3%	-1.0	6	1.6	-16	-14	11
COc1ccc(C(=O)NCCN2CCOCC2)cc1OC	·	·	·	-2%	-0.8	0	-0.5	-1	·	-6
CC(C)CNS(=O)(=O)c1ccc(CCC(=O)N2CCN(Cc3ccc4c(c3)OCO4)CC2)cc1	·	·	·	21%	-2.8	23	1.5	-32	·	53
Cc1nn(CC(=O)N2CCC(C)CC2)c(=O)c2nn(-c3ccccc3)c(C)c12	8	10	4.0	·	-1.4	-4	1.1	16	-3.3	6
COc1ccc(NC(=S)Nc2cccc(Cl)c2)cc1OC	-40	-68	-3.1	5%	?	2	0.2	4	3.5	-20
COc1cc2c(cc1NC(=O)CSc1ccccc1)oc1ccccc12	-5	-3	-2.5	·	2.6	-2	-0.5	5	-0.1	-10
COc1cc(C(C(=O)NC2CCCCC2)N(Cc2ccco2)C(=O)c2cnccn2)cc(OC)c1OC (stereo unspecified)	2	1	2.7	·	0.8	1	0.3	-8	-4.7	0
Cc1ccc(-c2nc(C#N)c(N3CCCCC3)o2)cc1	-2	2	-1.1	-10%	-0.2	·	1.0	8	2.7	23
CC(=O)Nc1cc(NC(C)=O)cc(C(=O)N2CCCC3CCCCC32)c1 (stereo unspecified)	4	10	2.4	9.5µM*	5.7	6	0.4	5	-4.7	-15
COc1ccc(OCC(=O)Nc2ccc3c(c2)nc(CCN2CCCC2)n3C)cc1	-1	7	1.1	2%	?	-2	0.4	-8	3.7	9
COc1ccc(Cc2nnc(Nc3ccccc3)s2)cc1Br	-10	-17	6.5	·	2.9	-2	0.2	11	-3.8	45
CCCCN(C)C(=O)Cn1cnc2sc(C)cc2c1=O	·	·	·	?	-0.6	-7	0.0	-8	·	-4
Cc1nc(Nc2ccc(F)cc2)nc(Nc2ccc(F)cc2)c1[N+](=O)[O-]	19	23	1.3	·	-0.4	8	-0.1	3	3.2	33
O=S(=O)(N/N=C\C=C\c1ccccc1)c1ccc(Br)cc1	·	·	·	-3%	0.2	-31	0.6	22	·	-2
O=C(Nc1nnc(-c2ccco2)o1)c1ccc2ccccc2c1	·	·	·	30%	-1.9	·	-6.9	-14	·	-6
Cc1cc(C(=O)OCC(=O)N2CCOCC2)ccc1[N+](=O)[O-]	9	12	-9.6	-3%	-1.0	-7	2.4	-4	-0.1	-8
COC(=O)c1c(NC(=O)CSc2ncnc3[nH]ncc23)sc2c1CCC2	6	9	9.7	-7%	4.4	14	-1.0	-5	-0.3	13
O=C(Nc1ccc(F)cc1)c1nc(S(=O)(=O)Cc2ccccc2)ncc1Cl	1	1	-2.5	·	0.7	40	-0.2	-6	-9.0	-19
CC(=O)Nc1ccc(NC(=O)C(C)OC(=O)CSCc2cccc(Cl)c2)cc1 (stereo unspecified)	0	0	-1.0	·	0.0	-1	0.5	-2	-0.4	-9
O=C(C1CCCCC1)N1CCc2[nH]c3ccc(F)cc3c2C1	-3	7	-0.5	-2%	-8.2	-2	2.4	?	·	16

Some values from the entries so far.
In T cruzi inh, CC(=O)Nc1ccc(NC(=O)C(C)OC(=O)CSCc2cccc(Cl)c2)cc1 (stereo unspecified) is listed with -9
In RanGTP-Impb inh, O=C(C1CCCCC1)N1CCc2[nH]c3ccc(F)cc3c2C1 is listed with -8.2
In T cruzi inh, Cc1cc(C(=O)OCC(=O)N2CCOCC2)ccc1[N+](=O)[O-] is listed with -8
In A1 inh, CC(C)CC(=O)c1c[nH]c(C(=O)O)c1 is listed with 1.7
In rRNA inh HTS RFP, Cc1ccc(-c2nc(C#N)c(N3CCCCC3)o2)cc1 is listed with -1.1

Next part.
SMILES	rRNA inh HTS	rRNA inh HTS OD600	rRNA inh HTS RFP	Vif A3G	RanGTP-Impb inh	Beta apoptosis	A1 inh	Calb FLC	MLL AF4-AF9 inh	T cruzi inh
COCCCn1c(-c2ccccc2)nc2ccccc2c1=O	·	·	·	-3%	3.4	-7	0.2	-13	·	-12
Nc1c(N2CCCC2)c2ccccc2oc1=O	1	7	1.3	21%	1.5	1	0.0	1	-12	-12
C[C@H](CO)NC(=O)[C@H](C)[C@H]1C[C@]1(C)[C@H](NC(=O)OCc1ccccc1)c1ccccc1	7	12	11	?	2.6	·	0.5	-17	-2.9	-21
CC(C)n1c(CN(C)c2ccccc2)nc2ccccc21	-22	-26	-2.4	·	?	-5	-1.7	-2	4.3	-7
COc1ccc(OCc2cc(C(=O)NC(C)Cc3cnccn3)no2)c(Cl)c1 (stereo unspecified)	-6	-4	0.2	-8%	2.4	0	-0.8	14	-1.4	1
CCCN(CC(=O)Nc1ccccc1C)C(=O)CCNC(=O)c1ccccc1Cl	2	6	-1.7	12%	-4.6	-3	1.3	-6	-2.6	-1
CC(C)C1N=C2c3ccccc3N=C(SCC#N)N2C1=O (stereo unspecified)	·	·	·	9%	-1.0	4	1.5	1	·	4
CCCCCCc1c(C)c2ccc(OCC(=O)N3CCC[C@H]3C(=O)O)c(C)c2oc1=O	·	·	·	·	-3.4	·	0.2	-4	-3.3	-9
CC(=O)c1ccccc1NC(=O)COC(=O)/C=C/c1ccc(OC(F)F)cc1	0	-3	1.7	0%	0.4	-9	0.5	1	0.1	-8
O=C1c2ccccc2NC(c2ccc(Cl)cc2Cl)N1O (stereo unspecified)	·	·	·	3%	1.2	3	0.3	-2	·	-23
Cc1ccc2nc(-c3ccncc3)c(NC3CCCC3)n2c1	8	6	-0.6	5%	4.1	-3	-1.0	-45	-2.9	77*
CC1CCN(c2ccc(C(=O)N3CCOCC3)cc2[N+](=O)[O-])CC1	·	·	·	-1%	3.4	1	0.1	1	·	4
COc1cccc(NC(=O)CSc2nc3c(oc4ccccc43)c(=O)[nH]2)c1	·	·	·	-5%	-1.5	-5	-1.2	30	·	-14
Cc1ccc(S(=O)(=O)NCc2ccc(C(=O)N3CCN(c4ccc([N+](=O)[O-])cc4)CC3)cc2)cc1	1	6	-0.4	·	-0.5	35	1.0	1	-3.9	1
CC(=O)N1CCSc2ccc(S(=O)(=O)NCCc3ccc(Cl)cc3)cc21	-38	-32	-6.3	·	-2.6	1	0.0	-4	-6.7	-5
C/C(=N/NS(=O)(=O)c1ccc(C)cc1)c1ccc2c(c1)OCO2	2	4	0.8	·	0.4	-4	-0.2	45	-0.9	-10
O=C(NCC1CCCO1)c1ccc2c(c1)N(Cc1ccc(F)cc1)CCS2 (stereo unspecified)	-31	-48	-10	·	3.6	-1	0.5	7	2.3	12
CCCSc1nc2ccccc2n1CC(=O)O	9	1	1.1	-2%	2.3	-6	0.1	2	-1.3	-1
O=C(NCCN1C(=O)C2C3C=CC(C3)C2C1=O)Nc1ccccc1 (stereo unspecified)	9	18	-2.5	28%	1.1	-6	1.4	-7	-1.3	-11
CN1CCN(S(=O)(=O)c2cccc(C(=O)Nc3sccc3C(N)=O)c2)CC1	-11	-3	13	5%	·	-1	0.4	·	3.9	·
O=C1c2ccccc2C(=O)N1CC1c2ccccc2CCN1C(=O)N1CCOCC1 (stereo unspecified)	·	·	·	1%	-1.0	-5	0.5	3	·	2
CC1CCCCN1CC(=O)NC(c1ccccc1)c1ccccc1 (stereo unspecified)	6	-4	2.6	·	-0.2	-2	0.4	-6	0.2	-12
CC(=O)OC(C(=O)N1CCOCC1)c1c(F)cccc1F (stereo unspecified)	19	16	0.8	-4%	-0.9	0	0.2	-8	-2.5	-19
Cc1ccc(C(=O)NNC(=O)C(C)Sc2nc(N)cc(N)n2)cc1 (stereo unspecified)	·	·	·	-6%	-1.4	-3	-0.2	6	·	-11
O=C(CCc1ccccc1)Nc1nc2nc(-c3ccccc3)cc(=O)n2[nH]1	·	·	·	5%	-0.1	-2	-0.2	13	·	7
SMILES	rRNA inh HTS	rRNA inh HTS OD600	rRNA inh HTS RFP	Vif A3G	RanGTP-Impb inh	Beta apoptosis	A1 inh	Calb FLC	MLL AF4-AF9 inh	T cruzi inh
CCCc1cc(=O)[nH]c(SCC(=O)N(CC)c2c(N)n(Cc3ccccc3)c(=O)[nH]c2=O)n1	14	8	0.4	-6%	-1.3	-3	1.1	-1	-6.1	-8
CCNS(=O)(=O)c1ccc2nc(NC(=O)/C=C/c3cc(OC)c(OC)c(OC)c3)sc2c1	-14	-4	7.9	7%	-2.8	2	1.0	-14	-1.1	1
COc1ccccc1N1CCN(C(=O)c2sc3nc(-c4ccccc4)cn3c2C)CC1	·	·	·	-3%	-0.8	-1	2.0	14	·	14
Nn1c(C2CCCCC2)nc2ccccc2c1=O	1	2	-8.6	11%	2.7	-5	0.4	11	2.6	-10
COCc1cc(C)nc2sc(C(=O)Nc3nccs3)c(N)c12	7	3	0.5	-6%	-13	-1	-0.2	8	-15	-3
COc1ccc(C2=NNC(c3cccnc3)=Nc3ccc(OC)cc32)cc1	6	-2	-1.9	-4%	0.2	0	0.7	-2	6.6	5
COc1cccc(C(=O)Oc2ccc(/C=N/Nc3ccc(C(=O)O)cc3)cc2OC)c1	-33	-51	-2.4	·	5.3	-5	-7.7	46	9.8	2
CCn1c(O)c(N=Nc2ccc(Cl)c(C(=O)O)c2)c2ccccc21	-15	-23	9.6	16%	-4.2	-9	-0.2	-2	5.4	-3

Record cards, as listed above.
CCCc1cc(=O)[nH]c(SCC(=O)N(CC)c2c(N)n(Cc3ccccc3)c(=O)[nH]c2=O)n1 in the list: rRNA inh HTS: 14; rRNA inh HTS OD600: 8; rRNA inh HTS RFP: 0.4; Vif A3G: -6%; RanGTP-Impb inh: -1.3; Beta apoptosis: -3; A1 inh: 1.1; Calb FLC: -1; MLL AF4-AF9 inh: -6.1; T cruzi inh: -8
CCNS(=O)(=O)c1ccc2nc(NC(=O)/C=C/c3cc(OC)c(OC)c(OC)c3)sc2c1 in the list: rRNA inh HTS: -14; rRNA inh HTS OD600: -4; rRNA inh HTS RFP: 7.9; Vif A3G: 7%; RanGTP-Impb inh: -2.8; Beta apoptosis: 2; A1 inh: 1.0; Calb FLC: -14; MLL AF4-AF9 inh: -1.1; T cruzi inh: 1

From PubChem BioAssay

An excerpt; the hit share may differ from the screen's.
